# Ecoli rRNA inh = reduced GFP signal of wild-type E. coli, primary screen, bacterial rRNA inhibitor project, GFP/RFP fluorescence, OD600, single point; E. coli WT GFP vs humanized-ribosome RFP mutants, 24 h; hits give low values; DMSO median 0, no signal -100; GFP signal change (wild-type ribosome), % (no concentration beside the values); actives 1.6% (n = 350,000);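 active means significant combined selectivity score with lowered wild-type GFP, culture density cut under 30%, mutant RFP and density less affected; inactive means any of these conditions unmet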; further: one replicate is shown; some compounds called inactive have numbers as strong as hits
# MLL AF4-AF9 inh = inhibitors of AF4 peptide binding to AF9, primary screen, biochemical, AlphaScreen, biotin-AF4 peptide, FLAG-AF9, single point; Protein AF-9 (Homo sapiens), P42568; inhibition, % at 10 µM; actives 0.47% (n = 350,000); AID 651704, 2012;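 active means every replicate reaching a set inhibition limit, whatever the replicate mean, cut at about 25% in these data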;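 further: 0% = plate neutral control median and 100% = total signal loss; the record names both 10 and 1 µM as test concentration; the first replicate is given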
# Target sequence (P42568 whole entry, looked up): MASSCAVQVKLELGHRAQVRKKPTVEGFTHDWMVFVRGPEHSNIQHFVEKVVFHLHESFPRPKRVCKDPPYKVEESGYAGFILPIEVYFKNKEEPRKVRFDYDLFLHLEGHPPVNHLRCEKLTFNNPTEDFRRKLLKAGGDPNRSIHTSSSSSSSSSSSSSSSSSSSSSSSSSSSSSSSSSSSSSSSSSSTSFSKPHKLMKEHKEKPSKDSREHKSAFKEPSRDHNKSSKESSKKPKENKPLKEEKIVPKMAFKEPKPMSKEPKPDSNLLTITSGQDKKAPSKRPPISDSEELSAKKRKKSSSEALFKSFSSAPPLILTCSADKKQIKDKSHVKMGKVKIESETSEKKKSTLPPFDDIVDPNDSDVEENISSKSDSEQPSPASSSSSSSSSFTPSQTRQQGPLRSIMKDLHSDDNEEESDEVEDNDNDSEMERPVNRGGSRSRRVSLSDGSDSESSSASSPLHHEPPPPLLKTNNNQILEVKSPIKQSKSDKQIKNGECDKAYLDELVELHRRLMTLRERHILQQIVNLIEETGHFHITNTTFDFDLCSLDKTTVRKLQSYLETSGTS
# Ecoli rRNA inh OD600 = second read-out of Ecoli rRNA inh, no call of its own (marks repeat the call); OD600 change, %; measured here: OD600 growth;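 optical density of the mix in the first replicate; 0 = DMSO median and -100 = no signal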
# Ecoli rRNA inh RFP = recorded beside Ecoli rRNA inh, whose call it bears; RFP signal change, %; measured here: RFP humanized mutant strains;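 first replicate; 0 = DMSO median and -100 = no signal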
# Active calls of the source: *.
# Second line of a record: Ecoli rRNA inh OD600, MLL AF4-AF9 inh, Ecoli rRNA inh RFP, Ecoli rRNA inh
> CNCC(=O)c1ccc(O)c(O)c1
→ 19, -4.0, 0.1, 5
> O=C(Cc1cccnc1)N1CCCCN2[C@H](C1)[C@H](c1ccc(C#CC3CCCC3)cc1)[C@@H]2CO
→ -59, 1.8, -7.6, -51
> COC(=O)[C@@H]1[C@@H](CO)[C@@H]2Cn3c(cccc3=O)[C@H]1N2C(=O)C1CCCC1
→ 2, -3.9, -3.3, 0
> COC(=O)[C@H]1[C@H](CO)[C@H]2Cn3c(ccc(-c4ccccc4F)c3=O)[C@@H]1N2C(=O)C1CCC1
→ 4, 1.1, -0.8, 2
> COC(=O)[C@H]1[C@H](CO)[C@H]2Cn3c(ccc(C4=CCCCC4)c3=O)[C@@H]1N2CC1CCCCC1
→ -61, 2.0, 39, -26
> CCOC(=O)[C@]12Cc3cc4ccccc4cc3[C@H]1N(Cc1ccccc1)C(=O)c1ccccc12
→ -47, -11, -12, -35
> O=C1NCN(c2ccccc2)C12CCN(C(CCc1ccccc1)c1nnnn1C1CCCC1)CC2 (stereo unspecified)
→ 10, 3.0, 0.1, 2
> c1ccc2c(CCN3CCCCC3)c[nH]c2c1
→ 18, 2.8, 1.0, 8
> CN1CC2CN(Cc3ccccc3)S(=O)(=O)C2C1 (stereo unspecified)
→ 9, -0.4, -7.4, 3
> CC=Cc1ccc2n(c1=O)C[C@H]1[C@H](CO)[C@@H](C(=O)OC)[C@@H]2N1CC1CCOCC1 (mixture of isomers)
→ 9, 0.0, -1.2, 1
> O=C(O)[C@H]1[C@H](CO)[C@H]2Cn3c(ccc(-c4ccccc4)c3=O)[C@@H]1N2S(=O)(=O)c1ccccc1F
→ -6, -0.9, -2.8, 2
> CC(=O)N1[C@@H]2c3ccc(-c4cccc(C(=O)N(C)C)c4)c(=O)n3C[C@H]1[C@H](CO)[C@H]2C(=O)O
→ -1, -5.0, -2.6, 0
> COC(=O)[C@H]1[C@H](CO)[C@H]2Cn3c(cccc3=O)[C@H]2N1CC1CC1
→ 6, -1.6, 2.7, 2
> Fc1ccc2nc(-c3ccc(CN4CCC(n5nnc6ccccc65)CC4)cc3)c(-c3ccccc3)nc2c1
→ 20, -2.8, 9.2, 12
> CCCN1[C@@H]2Cn3c(ccc(-c4cccc(OC)c4)c3=O)[C@H]1[C@@H](C(=O)OC)[C@@H]2CO
→ 3, -18, 0.0, 2
> COc1ccc(C#Cc2ccc([C@@H]3[C@H](CO)N4CCCCN(C(=O)Cc5ccccc5)C[C@@H]34)cc2)cc1
→ -74, 13, -11, -54
> COC(=O)[C@@H]1[C@@H](CO)[C@@H]2Cn3c(ccc(C4=CCCC4)c3=O)[C@H]1N2S(=O)(=O)c1cn(C)cn1
→ 6, -2.1, -4.3, 4
> O=[N+]([O-])c1c(Cl)c(Cl)c(Cl)c(Cl)c1Cl
→ 6, -40, -1.6, 2
> COc1ccc(C#Cc2ccc([C@H]3[C@@H](CO)N4CCCCN(C(=O)Cc5cccnc5)C[C@@H]34)cc2)cc1
→ -62, -11, 29, -2
> CCOC(=O)[C@]12Cc3cc(C)ccc3[C@H]1N(Cc1ccccc1)C(=O)c1cc(OC)ccc12
→ -6, -1.3, -4.9, -6

# Full records from above. Values in the order: Ecoli rRNA inh OD600 | MLL AF4-AF9 inh | Ecoli rRNA inh RFP | Ecoli rRNA inh
# COC(=O)[C@@H]1[C@@H](CO)[C@@H]2Cn3c(ccc(C4=CCCC4)c3=O)[C@H]1N2S(=O)(=O)c1cn(C)cn1 as listed: 6 | -2.1 | -4.3 | 4
# CC(=O)N1[C@@H]2c3ccc(-c4cccc(C(=O)N(C)C)c4)c(=O)n3C[C@H]1[C@H](CO)[C@H]2C(=O)O as listed: -1 | -5.0 | -2.6 | 0
# COc1ccc(C#Cc2ccc([C@H]3[C@@H](CO)N4CCCCN(C(=O)Cc5cccnc5)C[C@@H]34)cc2)cc1 as listed: -62 | -11 | 29 | -2
# CCCN1[C@@H]2Cn3c(ccc(-c4cccc(OC)c4)c3=O)[C@H]1[C@@H](C(=O)OC)[C@@H]2CO as listed: 3 | -18 | 0.0 | 2
# Fc1ccc2nc(-c3ccc(CN4CCC(n5nnc6ccccc65)CC4)cc3)c(-c3ccccc3)nc2c1 as listed: 20 | -2.8 | 9.2 | 12

# New compounds follow:
# Second line of a record: Ecoli rRNA inh OD600, MLL AF4-AF9 inh, Ecoli rRNA inh RFP, Ecoli rRNA inh
> O=C(O)[C@H]1[C@H](CO)[C@H]2Cn3c(ccc(C4=CCCC4)c3=O)[C@@H]1N2C(=O)Cc1ccccn1
→ 5, -5.9, -3.0, 2
> O=C1CC(=O)N(c2ccccc2)C(=O)N1
→ 14, -6.7, -0.2, 27
> c1cc2c(cc1N1CCCCC1)CNCc1cnnn1-2
→ 9, 0.7, -1.7, 13
> COC(=O)[C@H]1[C@H](CO)[C@H]2Cn3c(ccc(-c4ccccc4)c3=O)[C@@H]1N2S(=O)(=O)c1ccccc1C
→ -6, 1.5, -0.5, -6
> COC(=O)[C@H]1[C@H](CO)[C@H]2Cn3c(ccc(-c4cccc(C(=O)N(C)C)c4)c3=O)[C@@H]1N2CC1CC1
→ -4, -11, -1.4, 2
> O=C(Cc1ccccc1)N1CCCCN2[C@H](CO)[C@@H](c3ccc(C#CC4(O)CCCC4)cc3)[C@H]2C1
→ -9, -8.5, -0.4, 0
> COc1cccc(C(c2nnnn2-c2c(C)cccc2C)N2CCC(n3c(=O)[nH]c4ccccc43)CC2)c1OC (stereo unspecified)
→ -4, 1.8, 0.5, -7
> CC(CC(C)(C)N1CC1)=NNC(=O)Nc1cccc2ccccc12
→ -10, 9.3, -1.1, 1
> CCCNC(=O)[C@@H]1[C@@H](CO)[C@@H]2Cn3c(cccc3=O)[C@@H]2N1C
→ 14, -2.4, -0.3, 5
> O=C(O)[C@H]1[C@H](CO)[C@H]2Cn3c(ccc(-c4ccccc4F)c3=O)[C@@H]1N2C(=O)c1cccnc1
→ -3, 0.4, 0.8, 1
> CCCCCN1C(=O)c2cc(OC)ccc2[C@@]2(C(=O)OCC)Cc3cc(Cl)ccc3[C@@H]12
→ -80, -4.9, -16, -55
> C/C=C/c1ccc([C@H]2[C@@H](CO)N3CCCCN(C(=O)Cc4cccnc4)C[C@@H]23)cc1
→ 22, -6.7, -0.6, 5
> O=C(Cc1ccccn1)N1CCCCN2[C@H](C1)[C@@H](c1ccc(-c3ccccc3)cc1)[C@@H]2CO
→ -7, -5.9, -0.7, -1
> CC(=O)C1=C(C)OC2=C(C(=O)CCC2)[C@@]12C(=O)N(C)c1ccccc12
→ 13, -1.4, 3.6, 18
> NC(Cc1ccc(F)cc1)c1csc(Nc2cnccn2)n1 (stereo unspecified)
→ -7, 3.7, 6.0, -1
> O=C(Cc1ccncc1)N1CCCCN2[C@@H](CO)[C@H](c3ccc(C#Cc4ccccc4F)cc3)[C@@H]2C1
→ -77, 0.1, -9.4, -50
> O=c1[nH]c2ccccc2n1C1CCN(C(c2ccccc2OC(F)(F)F)c2nnnn2-c2ccc3c(c2)OCCO3)CC1 (stereo unspecified)
→ 11, -1.0, 1.1, 4
> COc1ccc(-n2nnnc2C(C2CC2)N2CCC(n3c(=O)[nH]c4ccccc43)CC2)cc1 (stereo unspecified)
→ -46, 13, -6.8, -34
> CC(C)N1CCOC(c2ccc(O)c(O)c2)C1 (stereo unspecified)
→ 21, -2.6, 0.3, 6
> COc1ccc(-c2ccc([C@@H]3[C@H](CO)N4CCCCN(C(=O)Cc5ccccc5)C[C@@H]34)cc2)cc1
→ -75, 2.5, -11, -60
> NC(Cc1ccc(F)cc1)c1csc(Nc2ccccn2)n1 (stereo unspecified)
→ -9, 7.7, 5.0, 1
> COC(=O)C1=C(c2ccc(OCc3ccccc3)cc2)C[C@@H]2CC[C@H]1N2C
→ 2, 2.9, 5.7, -6
> S=C(NCCc1ccccc1)N1Cc2cc(N3CCCCC3)ccc2-n2nncc2C1
→ 2, -1.1, 58, 21
> CCOP(=O)(Nc1ccc2c(c1)C(=NNC(N)=S)c1ccccc1-2)OCC
→ -74, 7.4, -14, -51
> COc1ccc(-c2ccc([C@H]3[C@H]4CN(C(=O)Cc5ccccc5)CCCCN4[C@H]3CO)cc2)cc1
→ -46, -5.0, 27, -6
> COc1ccc(CN(CCc2c[nH]c3ccccc23)Cc2ccc(OC)cc2)cc1
→ -71, 4.6, -7.1, -44
> N#CC12c3ccccc3C(=O)N1Cc1cnnn1-c1ccccc12 (stereo unspecified)
→ 14, 1.0, -1.2, 8
> COC(=O)[C@H]1[C@H](CO)[C@H]2Cn3c(ccc(-c4cccc(F)c4)c3=O)[C@@H]1N2C(=O)CC1CC1
→ 5, 1.4, -0.8, 1
> COc1ccc(C#Cc2ccc([C@H]3[C@H](CO)N4CCCCN(C(=O)Cc5ccccc5)C[C@@H]34)cc2)cc1
→ -70, 7.6, 0.8, -48
> COc1ccc(C(c2nnnn2-c2ccc3c(c2)OCCO3)N2CCC3(CC2)C(=O)NCN3c2ccccc2)cc1 (stereo unspecified)
→ -6, -6.2, -6.7, 11

# 2 of these compounds in a different format.
N#CC12c3ccccc3C(=O)N1Cc1cnnn1-c1ccccc12 (stereo unspecified)
  Ecoli rRNA inh OD600: 14 | MLL AF4-AF9 inh: 1.0 | Ecoli rRNA inh RFP: -1.2 | Ecoli rRNA inh: 8
COC(=O)[C@H]1[C@H](CO)[C@H]2Cn3c(ccc(-c4cccc(F)c4)c3=O)[C@@H]1N2C(=O)CC1CC1
  Ecoli rRNA inh OD600: 5 | MLL AF4-AF9 inh: 1.4 | Ecoli rRNA inh RFP: -0.8 | Ecoli rRNA inh: 1

# Going on with the list:
# Second line of a record: Ecoli rRNA inh OD600, MLL AF4-AF9 inh, Ecoli rRNA inh RFP, Ecoli rRNA inh
> COc1ccc(CN2Cc3cc(-c4ccc(OC)cc4)ccc3-n3nncc3C2)cc1
→ -9, -1.1, 2.3, -7
> COc1cccc(-c2ccc([C@@H]3[C@@H](CO)N4CCCCN(C(=O)Cc5ccncc5)C[C@H]34)cc2)c1
→ 6, -3.4, 0.8, -5
> c1cc2c(cc1-c1ccc3c(c1)OCO3)CNCc1cnnn1-2
→ 17, -1.6, -1.3, 11
> COc1cccc(-c2ccc([C@H]3[C@H]4CN(C(=O)Cc5ccncc5)CCCCN4[C@H]3CO)cc2)c1
→ -8, -8.9, -1.5, 0
> Cc1ccc(C(=O)NCCN2CCC3(CC2)C(=O)NCN3c2ccccc2)cc1
→ 22, -2.8, 6.7, 20
> COc1ccc(OC(=O)N(C)C[C@H]2OCc3ccccc3-c3c(n(C)c4ccccc34)C(=O)N([C@@H](C)CO)C[C@@H]2C)cc1
→ 6, 6.8, 9.3, 2
> N#Cc1cccc(-c2ccc([C@H]3[C@H](CO)N4CCCCN(C(=O)Cc5cccnc5)C[C@@H]34)cc2)c1
→ 22, -4.5, 14, -4
> O=C(O)[C@H]1[C@H](CO)[C@H]2Cn3c(ccc(-c4ccc(F)cc4)c3=O)[C@@H]1N2CC1CCCC1
→ 2, -2.8, 1.6, 0
> c1ccc(-c2ccc3c(c2)CNCc2cnnn2-3)cc1
→ 19, -1.3, -2.4, 10
> COc1cc(C(=O)O)cc(OC)c1OC
→ -2, -2.1, -9.1, 3
> CCN1[C@@H]2c3ccc(-c4cccc(C(=O)N(C)C)c4)c(=O)n3C[C@H]1[C@H](CO)[C@H]2C(=O)OC
→ 5, -28, 1.0, 0
> COC(=O)[C@@H]1[C@@H](CO)[C@@H]2Cn3c(ccc(C4=CCCCC4)c3=O)[C@H]1N2Cc1ccccn1
→ 5, 0.9, 1.9, 0
> COC(=O)[C@@H]1[C@@H](CO)[C@@H]2Cn3c(ccc(-c4ccccc4F)c3=O)[C@H]1N2C(=O)C1CCC1
→ 7, 0.6, -1.5, 2
> O=C(Cc1ccccn1)N1CCCCN2[C@@H](CO)[C@@H](c3ccc(-c4ccccc4F)cc3)[C@@H]2C1
→ 5, -3.0, 0.1, 0
> CCOC(=O)[C@]12Cc3cc(Cl)ccc3[C@H]1N(C1CCCCC1)C(=O)c1cc(OC)ccc12
→ -83, -7.6, -18, -57
> CN(C)C(=O)[C@H]1[C@H](CO)[C@H]2Cn3c(cccc3=O)[C@@H]1N2CC1CC1
→ 3, -5.8, -0.9, 4
> Cc1cccc(S(=O)(=O)N2[C@@H]3c4ccc(-c5ccncc5)c(=O)n4C[C@H]2[C@H](CO)[C@H]3C(=O)O)c1
→ -2, -1.0, -0.5, 2
> Cn1cccc1/C=C1\C(=O)NC(=O)N(Cc2ccccc2Cl)C1=O
→ 11, -0.1, 2.5, 7
> CCOC(=O)[C@]12Cc3c(cc(OC)c(OC)c3OC)[C@H]1N(C)C(=O)c1cc(OC)ccc12
→ -38, -15, -5.4, -40
> O=c1[nH]c2ccccc2n1C1CCN(C(CCc2ccccc2)c2nnnn2C2CCCCC2)CC1 (stereo unspecified)
→ 14, 3.1, -0.3, 11
> CCCNC(=O)N1[C@@H]2c3ccc(-c4ccccc4OC)c(=O)n3C[C@H]1[C@H](CO)[C@H]2C(=O)OC
→ 18, 0.0, 1.6, 3
> Fc1ccc(N2Cc3ccccc3-n3nncc3C2)cc1
→ -11, 1.6, -2.6, -6
> NC(=O)c1ccc(N)nc1
→ 2, -2.4, 1.2, 3
> CC(CCN1CC1)=NNC(=O)Nc1cccc2ccccc12
→ 10, 5.1, 4.6, -3
> C/C=C/c1ccc(C2[C@H]3CNC[C@@H]2N3CC2CC2)cc1 (stereo partly specified)
→ 6, 12, 3.5, 3
> COC(=O)[C@@H]1[C@@H](CO)[C@@H]2Cn3c(ccc(-c4ccccc4)c3=O)[C@H]1N2CCc1ccccc1
→ -9, -0.7, 0.4, -2

# Some of the compounds tested; count on the stated rates, not on these rows.
